Assay outcomes from PubChem.
Rango-impB inh – Rango-importin beta binding inhibition; Q14974; Potency, µM (doses to about 92.2 µM), inactives show at the highest dose inhibition of complex formation; Rango CFP/YFP FRET sensor + importin beta, 45 min; 340,000 tested, 0.031% active; active = rising FRET ratio curve, often small or poorly fitted; inconclusive = mostly compound fluorescence or quenching in the first reads; inactive = flat curves in all reads;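 also: potency is read from the fitted curve at half-maximal effect; 0% = DMSO wells and 100% = buffer wells lacking importin beta; nearly all actives have a fitted effect of over 15% in size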
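FRET biosensor Rango (snurportin 1 IBB between N-terminal EYFP and C-terminal Cerulean), 50 nM in PBS/1 mM DTT/0.02% Tween-20/0.1% BSA, preincubated 5 min RT with compound; 0.125 microM importin beta added, 45 min RT, CFP/YFP FRET ratio read.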
miR-21 reporter – miR-21 reporter, rising signal | HeLa miR-21 FLuc reporter, luciferase, 48 h | 340,000 tested, under 10 active | Potency, µM (titrated, usually from 38.3 µM), without a hit: top-dose reporter change, positive = more light | AID 2288; active = well fitted rising curve with a large enough effect; inconclusive = small, poorly fitted or top-dose-only effect; inactive = no such curve, though single readings can be large or run the other way;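 also: % of control where 0% means no effect; miR-21 action dims this reporter so a rising signal means less miR-21 action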
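HeLa cells stably expressing CMV-driven firefly luciferase with a downstream miR-21 binding sequence, endogenously expressing miR-21, were treated with titrations (up to about 40uM final) for 48 hours at 37 degree Celsius. Luciferase luminescence was read after lysis.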
GLA inh pH 4.5 – inhibitors of human alpha-galactosidase A at pH 4.5. P06280. 230,000 tested, under 10 active. activity change, negative = inhibition, % at 105 µM. AID 1467. purified enzyme, 4-MU-alpha-Gal fluorescence, pH 4.5; inconclusive = small, poorly fitted or top-dose-only inhibition, or a rising curve; inactive = flat fitted curve, though single readings scatter; no compound was filed as active;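 also: 0% = full activity with enzyme and -100% = basal without enzyme; dose as in the result columns while the protocol names 77 µM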
Target sequence (P06280 whole entry, looked up): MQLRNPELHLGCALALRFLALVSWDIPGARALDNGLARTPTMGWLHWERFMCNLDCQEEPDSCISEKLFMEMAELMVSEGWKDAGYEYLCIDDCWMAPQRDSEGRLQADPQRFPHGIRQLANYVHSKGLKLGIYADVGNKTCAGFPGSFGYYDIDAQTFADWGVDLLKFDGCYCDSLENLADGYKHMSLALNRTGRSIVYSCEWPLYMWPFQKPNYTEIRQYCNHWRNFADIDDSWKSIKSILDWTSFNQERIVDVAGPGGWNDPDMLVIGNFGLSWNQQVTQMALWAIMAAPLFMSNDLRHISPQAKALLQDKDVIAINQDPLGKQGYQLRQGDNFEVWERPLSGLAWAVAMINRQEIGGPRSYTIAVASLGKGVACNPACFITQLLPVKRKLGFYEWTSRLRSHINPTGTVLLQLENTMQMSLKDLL
Rango release inh – prevents RanGTP from dissociating the Rango-importin beta complex | Potency, µM (top dose mostly 46.1 µM), for the others: at the highest dose activity change, negative = inhibition | Biochemical FRET Rango-importin beta, RanGTP-induced dissociation | AID 540253 | 340,000 tested, 0.071% active | O95149+P62826; active means falling FRET ratio curve, often poorly fitted, with flat reads before Ran was added; inconclusive means other falling curves, or compound fluorescence or quenching; inactive means flat or rising ratio curve;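 also: potency is read from the fitted curve at half-maximal effect; % of control where 0% means no effect; nearly all actives have a fitted effect of over 45% in size; -100% = wells without RanGTP and RCC1; the record marks most hits as doubtful in a second field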
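Compounds preincubate 5 min with complex of recombinant Rango and importin beta in PBS with 1 mM DTT. Ran (0.6 uM) loaded with 2 mM GTP plus 0.2 uM RCC1 starts dissociation; FRET is recorded 45 min later.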
* marks the source's active call; other numbers are inactive results; u = inconclusive; x = not tested or not shown; & = joins results of further samples. The list is partial; the hit share may differ from the screen's.

SMILES	GLA inh pH 4.5	Rango release inh	Rango-impB inh	miR-21 reporter
CCOC(=O)c1cnc2c(C)cc(C)cc2c1Nc1ccc(S(=O)(=O)Nc2ncccn2)cc1	14.4	-5.7%	-4.3%	-1.9%
CNC(=S)NNC(=O)c1ccc(N(C)C)cc1	3.9	20.0%	-0.5%	-14.4%
CC(C)CN1C(=S)SC(C)(C)C1n1oc(=O)n(-c2ccccc2)c1=O (configuration not stated)	-8.9	-19.0%	4.8%	0.6%
Cc1ccc(S(=O)(=O)Nc2cccc3cccnc23)c([N+](=O)[O-])c1	x	-4.1%	0.0%	u
CCCn1c(=O)c2sccc2n2c(CCCC(=O)NCC3CCCO3)nnc12 (configuration not stated)	x	-4.3%	-1.8%	3.9%
CN(C(=O)CC1C(=O)NCCN1Cc1ccc2ccccc2c1)C1CCOCC1 (configuration not stated)	x	0.2%	u	1.5%
O=C(Nc1ccc2c(c1)OCO2)c1noc2c1CCCC2	x	5.4%	1.4%	-31.6%
Cc1cccc(NC(=O)NC2CC(=O)N(c3ccc4c(c3)OCCO4)C2)n1 (configuration not stated)	-3.1	1.5%	3.8%	-10.2%
Cc1ccc(N2C(=O)CC(SCC(=O)Nc3ccc(S(N)(=O)=O)cc3)C2=O)cc1 (configuration not stated)	-4.6	-0.5%	0.5%	-36.8%
O=S(=O)(c1ccc(S(=O)(=O)N2CCCC2)cc1)N1CCCCC1	x	0.2%	1.7%	5.8%
O=C1NC(=S)S/C1=C\c1ccc(SCc2ccco2)o1	-11.8	-27.9%	u	-3.8%
COC(CNC(=O)CNC(=S)N(Cc1ccccc1)Cc1cccnc1)OC	7.5	6.7%	-3.0%	-2.1%
Cc1cc(S(=O)(=O)N2CCCC2)ccc1OCC(=O)NCc1ccccc1	x	10.4%	-1.1%	7.5%
Cc1ccc(SCC(=O)Nc2ccc(-c3nc4ccccc4[nH]3)cc2)cc1	-1.3	u	-2.8%	-15.2%
CCOc1ccc(-n2ccnc2)nn1	1.1	-0.2%	1.7%	-0.3%
N=C1C(=O)NC(=O)C1c1ccccc1 (configuration not stated)	x	-3.6%	-0.3%	x
CC(C)(C)NC(=O)C(c1ccccn1)N(C(=O)c1ccc2c(c1)OCCO2)C1CCCC1 (configuration not stated)	-3.1	1.3%	-1.0%	0.1%
CCC(=O)N1CCc2cc(S(=O)(=O)NCCC(=O)N3CCN(c4ccccn4)CC3)ccc21	-3.5	0.3%	-5.0%	-5.4%
CC(=O)/C(=C/Nc1ccc(Oc2ccccc2)cc1)c1ccccc1	-2.9	0.1%	-3.9%	-11.1%
COc1ccc(/C=N/NC(=O)CNS(=O)(=O)c2ccccc2)cc1	x	1.6%	-4.6%	x
CN(C)C=Nc1c(Br)cc(Br)c2nonc12	-2.7	u	u	-19.4%
CCCn1c(-c2cc(OC)c(OC)c(OC)c2)nc2c1c(=O)[nH]c(=O)n2Cc1ccccc1	x	-5.9%	-2.2%	-0.5%
O=C(Nc1cc(C(F)(F)F)cc(C(F)(F)F)c1)c1ccc(Cn2cc(C(F)(F)F)ccc2=O)cc1	u	8.0%	-1.0%	-3.4%
O=C(NCCSCc1c(F)cccc1Cl)c1ccc(CN2CCOCC2)cc1	-7.1	-14.9%	-9.1%	-7.1%
O=C(Nc1ccccc1-c1ccccc1)C1CCC1	-6.4	9.6%	-1.1%	-17.2%

Among those listed so far, these contain a carbonyl joined to an NH by a bond outside any ring:
SMILES	GLA inh pH 4.5	Rango release inh	Rango-impB inh	miR-21 reporter
CNC(=S)NNC(=O)c1ccc(N(C)C)cc1	3.9	20.0%	-0.5%	-14.4%
CCCn1c(=O)c2sccc2n2c(CCCC(=O)NCC3CCCO3)nnc12 (configuration not stated)	x	-4.3%	-1.8%	3.9%
O=C(Nc1ccc2c(c1)OCO2)c1noc2c1CCCC2	x	5.4%	1.4%	-31.6%
Cc1cccc(NC(=O)NC2CC(=O)N(c3ccc4c(c3)OCCO4)C2)n1 (configuration not stated)	-3.1	1.5%	3.8%	-10.2%
Cc1ccc(N2C(=O)CC(SCC(=O)Nc3ccc(S(N)(=O)=O)cc3)C2=O)cc1 (configuration not stated)	-4.6	-0.5%	0.5%	-36.8%
COC(CNC(=O)CNC(=S)N(Cc1ccccc1)Cc1cccnc1)OC	7.5	6.7%	-3.0%	-2.1%
Cc1cc(S(=O)(=O)N2CCCC2)ccc1OCC(=O)NCc1ccccc1	x	10.4%	-1.1%	7.5%
Cc1ccc(SCC(=O)Nc2ccc(-c3nc4ccccc4[nH]3)cc2)cc1	-1.3	u	-2.8%	-15.2%
CC(C)(C)NC(=O)C(c1ccccn1)N(C(=O)c1ccc2c(c1)OCCO2)C1CCCC1 (configuration not stated)	-3.1	1.3%	-1.0%	0.1%
COc1ccc(/C=N/NC(=O)CNS(=O)(=O)c2ccccc2)cc1	x	1.6%	-4.6%	x
O=C(Nc1cc(C(F)(F)F)cc(C(F)(F)F)c1)c1ccc(Cn2cc(C(F)(F)F)ccc2=O)cc1	u	8.0%	-1.0%	-3.4%
O=C(NCCSCc1c(F)cccc1Cl)c1ccc(CN2CCOCC2)cc1	-7.1	-14.9%	-9.1%	-7.1%
O=C(Nc1ccccc1-c1ccccc1)C1CCC1	-6.4	9.6%	-1.1%	-17.2%

(continued)
SMILES	GLA inh pH 4.5	Rango release inh	Rango-impB inh	miR-21 reporter
O=C(CSc1nc2ccccc2n1S(=O)(=O)c1cccc([N+](=O)[O-])c1)NCc1cccs1	3.8	-2.3%	4.0%	-33.1%
CCOC(=O)c1[nH]c2ccc(OC)cc2c1NC(=S)N1CCN(c2cccc(C)c2C)CC1	5.8	-10.7%	-0.9%	18.0%
Cc1cccc(-n2ncc3c2CCCC3NC(=O)CCN2CCCO2)c1C (configuration not stated)	x	-7.1%	3.0%	13.4%
CCn1nc(C)c(/C=N/NC(=O)c2nc3nc(C)cc(C)n3n2)c1C	-2.4	-7.0%	-1.2%	1.2%
COc1ccc(NC(=O)COC(=O)C23CC4CC(CC(O)(C4)C2)C3)cc1Cl	x	9.3%	2.0%	x
O=C(N[C@@H](Cc1ccc(O)cc1)C(=O)O)c1cccnc1	3.6	1.5%	0.1%	-0.1%
C/C(=N\O)C(C)(C)Nc1ccc(Br)cc1	0.2	4.5%	-0.1%	8.2%
COc1ccccc1NC(=O)CSc1n[nH]c(-c2ccco2)n1	x	10.4%	-2.1%	x
Cc1cc(C(=O)CSc2nn3c(=O)c(C(C)(C)C)nnc3s2)c(C)n1C	2.4	-12.7%	-3.3%	-1.9%
O=C1/C(=C/c2ccccc2)SC(=S)N1CCCC(=O)N1CCCCC1CCO (configuration not stated)	x	6.6%	0.3%	u
CC[C@@]12C(=O)N(c3cccc(F)c3)C(=O)N1[C@H](c1ccc(Cl)cc1)[C@@H]1C(=O)N(C3CCCCC3)C(=O)[C@@H]12	x	2.6%	-1.1%	x
CC(C)CN1C(=O)C(=O)N(CC(=O)N2CCN(c3ccccc3)CC2)C1=O	x	-4.0%	4.6%	x
COc1cc(C(=O)NCCC(=O)NC2CCCc3ccccc32)cc(OC)c1OC (configuration not stated)	x	-0.6%	-3.1%	0.5%
C=CCOc1ccc(/C=C/C(=O)OCC(=O)NC2CCCCCC2)cc1	x	0.6%	6.6%	-3.3%
O=C(NCCCN1CCCC1=O)c1ccc(OCc2ccccc2)cc1	2.2	15.4%	-0.8%	-20.6%
O=C(Nc1ccncc1)c1cc(S(=O)(=O)N2CCCCC2)ccc1Cl	x	12.2%	-0.2%	x
CCNc1ccc(Br)cc(C(=O)/C=C/c2ccc3c(c2)OCO3)c1=O	-7.5	u	u	-7.9%
CC(C)C1=Nc2cccc3cccc(c23)N1	-4.9	-14.7%	-1.1%	-8.5%
CC1CCCCN1C(=S)NC(=O)c1ccco1 (configuration not stated)	x	0.3%	3.0%	x
Cc1cccc2cc(CN(CCN(C)C)C(=S)Nc3ccccc3)c(=O)[nH]c12	1.9	16.9%	0.1%	-11.6%
Cc1ccc(C(=O)Nc2nnc(C3CCCCC3)s2)o1	2.6	-10.4%	-6.3%	-50.3%
O=C(CCNC(=O)c1ccccc1Cl)NN=Cc1ccccc1[N+](=O)[O-]	x	9.9%	4.6%	x
Cc1ccc(C)c(Cn2c(C)nc3c(sc(=S)n3-c3ccccc3)c2=O)c1	5.5	-19.1%	4.2%	-2.5%
CC[C@@]1(C(=O)OC)N[C@H](CN(C)C(=O)c2ccc(F)cc2)[C@@H]2C(=O)N(C)C(=O)[C@@H]21	x	-8.3%	3.5%	x
O=C(N=C1SC2CS(=O)(=O)CC2N1c1ccc(F)cc1)C1CC1 (configuration not stated)	x	-7.6%	-1.1%	-1.1%

Quoted from the listing.
Entry for CCNc1ccc(Br)cc(C(=O)/C=C/c2ccc3c(c2)OCO3)c1=O in GLA inh pH 4.5: -7.5
Entry for O=C(N[C@@H](Cc1ccc(O)cc1)C(=O)O)c1cccnc1 in miR-21 reporter: -0.1%

Other compounds follow.
SMILES	GLA inh pH 4.5	Rango release inh	Rango-impB inh	miR-21 reporter
CC(C)C(CCN1C(=O)c2ccccc2C1=O)c1ccco1 (configuration not stated)	0.6	2.2%	2.7%	0.2%
COc1ccc(/C=C/c2onc(C)c2S(=O)(=O)N2CCC(C(=O)N3CCC(C)CC3)CC2)cc1	x	21.5%	-0.8%	0.4%&22.2%
CNc1nc(CC(C)=O)ns1	7.0	8.9%	-0.8%	-8.0%
COc1ccccc1NCC(O)Cn1c2ccccc2c2ccccc21 (configuration not stated)	-14.2	10.7%	0.8%	-0.1%
CCOC(=O)Cn1cnc2c(nnn2-c2ccc(F)cc2)c1=O	x	-4.3%	-1.1%	0.4%
COC(=O)c1cccc(NC(=O)Cc2coc3cc(OC)ccc23)c1	-1.0	-3.2%	-4.7%	-26.2%
CCOC(=O)N1CCN(Cc2nc3c(c(=O)n(C)c(=O)n3C)n2Cc2ccccc2)CC1	4.3	0.9%	-1.0%	-10.9%
O=[N+]([O-])c1ccccc1S(=O)(=O)N1CCN(CC2CC=CCC2)CC1 (configuration not stated)	-4.5	25.7%	0.5%	-6.3%
NC(=O)Nc1ccc(C(=O)OCC(=O)Nc2sccc2C(N)=O)cc1	x	0.0%	0.2%	x
CS(=O)(=O)c1ccc2nc(NC(=O)CCN3C(=O)c4ccccc4C3=O)sc2c1	-0.2	-11.3%	-1.6%	-0.9%
CCCCCCn1c(CN2CCCCC2)nc2c1c(=O)n(C)c(=O)n2C	x	18.7%	0.0%	x
COc1ccc(S(N)(=O)=O)cc1C(=O)NNC(=O)c1cccc(S(=O)(=O)N2CCOCC2)c1	x	11.2%	5.3%	x
CCOC(=O)c1c2ccccc2[n+]([O-])n1CCO	x	2.2%	3.4%	x
CC(=O)c1ccc(OCC(C)C)c(CN2CCCCC2)c1	2.7	0.3%	-2.4%	-1.4%
Cc1c(C(=O)O)c(C(=O)O)nc2ccc(N3CCOCC3)cc12	-2.5	x	x	0.0%
CC(C)C[C@H](NC(=O)N1CC(=O)Nc2ccccc21)C(=O)N[C@@H](Cc1c[nH]c2ccccc12)C(=O)O	x	-6.8%	1.5%	-1.8%
COC(=O)c1cc(CNC(=O)C(C)NS(=O)(=O)c2ccc(C)c(C)c2)ccc1OC (configuration not stated)	x	-12.5%	-0.5%	-1.8%
